Bioassay records as filed in PubChem.
Vif A3G: HIV-1 Vif–A3G interaction blockers – biochemical, TR-FRET, GST-Vif 1-94, biotin-A3G peptide, dose response retest, primary screen (AID 1117319) | TR-FRET GST-Vif / biotin-A3G peptide binding; higher % means a stronger effect; test concentration not given here; strong numbers were not always called active | inhibition, %; hits with a dose series show IC50 in µM | 0.57% of 260,000 active;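 active means above the screen mean plus three standard deviations and confirmed in dose response; inconclusive means results disagree or hit not tested in dose response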;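 further: Vif residues 1-94 fused to GST binding biotinylated APOBEC3G peptide 110-148; 0% = full assay without inhibitor and 100% = GST in place of GST-Vif; retest series ran down from 100 µM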
HNF4A DNA FP: change in binding of human HNF4 alpha to DNA | 0.3% of 360,000 active | activity change, % at 10 µM | AID 1224865 | HNF4a-FITC DNA binding, fluorescence polarization, 1 h | P41235; in the data active means activity change above about 30%, passing the limit was not always enough;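 further: controls were the assay level and a saturating level of protein; the project sought stronger binding though the title names inhibitors; some compounds called inactive have numbers as strong as hits; positive values seem to mean higher polarization but the record does not say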
Target sequence (P41235 whole entry, looked up): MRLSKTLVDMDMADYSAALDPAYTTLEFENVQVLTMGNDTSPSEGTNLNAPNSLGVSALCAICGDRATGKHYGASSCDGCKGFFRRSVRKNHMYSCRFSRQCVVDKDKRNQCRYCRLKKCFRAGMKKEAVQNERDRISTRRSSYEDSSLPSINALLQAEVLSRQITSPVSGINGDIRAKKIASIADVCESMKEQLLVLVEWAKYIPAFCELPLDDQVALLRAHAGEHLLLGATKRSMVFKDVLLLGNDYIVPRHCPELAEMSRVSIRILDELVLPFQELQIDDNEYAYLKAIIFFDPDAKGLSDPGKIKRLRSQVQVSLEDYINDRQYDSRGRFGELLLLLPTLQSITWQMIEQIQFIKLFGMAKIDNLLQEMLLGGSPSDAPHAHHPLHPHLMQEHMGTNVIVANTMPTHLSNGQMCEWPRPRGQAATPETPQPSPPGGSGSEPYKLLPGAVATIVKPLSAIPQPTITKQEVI
Ecoli growth: E. coli growth inhibition | Escherichia coli growth, OD600, 23 h; active compounds read low | OD600 absorbance (no concentration beside the values) | 0.21% of 330,000 active | AID 1053175;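 active means OD600 absorbance below the run mean of sample wells minus 3.6 SD, in any replicate, cut at about 0.56 in these data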;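 further: stock transfer was 300 nL into about 60 µL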
FGF22 binding: binders of recombinant human FGF22 by thermal shift; Q9HCT0; SYPRO orange fluorescence; percent of sucrose octasulfate shift, DMSO zero; calls only at 9.99 µM; 1.5% of 340,000 active; AID 651658;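 active means melting point raised past a set limit in the mean and every replicate; inconclusive means no clear call; three in four hits are not shown here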
Target sequence (Q9HCT0 whole entry, looked up): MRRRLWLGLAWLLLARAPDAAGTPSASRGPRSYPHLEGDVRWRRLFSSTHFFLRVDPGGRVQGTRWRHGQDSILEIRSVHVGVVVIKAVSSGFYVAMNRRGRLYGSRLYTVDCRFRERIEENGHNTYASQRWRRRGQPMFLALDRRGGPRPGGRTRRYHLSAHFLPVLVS
MLL AF4-AF9 inh: blocks AF4 peptide binding to human AF9; inhibition, % at 10 µM; 0.47% of 350,000 active; P42568; AID 651704; AlphaScreen, biotin-AF4 peptide binding to FLAG-AF9;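 active means every replicate reaching a set inhibition limit, whatever the replicate mean, cut at about 25% in these data; inconclusive means mean inhibition reaches that limit but some replicates miss it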;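 further: 0% = plate neutral control median and 100% = total signal loss; the record names both 10 and 1 µM as test concentration; the first replicate is given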
ALR H2O2 inh: inhibitors of human sulfhydryl oxidase ALR | P55789 | 3.8% of 290,000 active | purified ALR, DTT oxidation, H2O2 HRP-luminol luminescence | AID 485317 | inhibition, % (concentration not given with the values);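 active means mean and each replicate at 75% or more; inconclusive means only one of the two met; inactive means neither met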;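 further: stock transfer was 7.5 nL into about 7.5 µL; 0% = neutral wells and 100% = wells with inactivated enzyme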
Target sequence (P55789 whole entry, looked up): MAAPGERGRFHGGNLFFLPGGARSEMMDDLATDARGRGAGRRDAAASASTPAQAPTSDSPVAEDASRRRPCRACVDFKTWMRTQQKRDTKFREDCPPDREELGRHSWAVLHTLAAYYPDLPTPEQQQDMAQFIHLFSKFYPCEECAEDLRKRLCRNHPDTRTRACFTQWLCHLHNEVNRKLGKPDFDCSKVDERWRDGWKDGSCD
Ecoli rRNA inh: inhibitors of bacterial rRNA selective over humanized ribosomes | E. coli WT GFP vs humanized-ribosome RFP mutants, fluorescence, 24 h; active compounds read low; DMSO median 0, no signal -100 | GFP signal change (wild-type ribosome), % (no concentration beside the values) | 1.6% of 350,000 active;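 active means significant combined selectivity score with lowered wild-type GFP, culture density cut under 30%, mutant RFP and density less affected; inactive means any of these conditions unmet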; further: one replicate is shown; some compounds called inactive have numbers as strong as hits
Ecoli rRNA inh OD600: further read-out of Ecoli rRNA inh, marked with its call; OD600 change, %; measured here: OD600 growth;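 optical density of the mix in the first replicate; 0 = DMSO median and -100 = no signal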
Ecoli rRNA inh RFP: also measured in Ecoli rRNA inh; calls as there; RFP signal change, %; measured here: RFP humanized mutant strains;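 first replicate; 0 = DMSO median and -100 = no signal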
* marks the source's active call; other numbers are inactive results; i = inactive; ? = inconclusive; · = no result given. Some of the compounds tested. The share of hits here may be higher or lower than overall.

[1] CCOc1ccccc1NC(=O)CSc1cn[nH]n1
[2] COc1ccc(Cl)cc1NS(=O)(=O)c1cccc(C(=O)NCC(C)(C)N2CCOCC2)c1
[3] CCn1nccc1C(=O)Nc1cc(Cl)ccc1Cl
[4] C=CCN=C1NC(c2cccc(Cl)c2)C(C(=O)OC)=C(C)N1Cc1cccc(C(F)(F)F)c1 (centres undefined)
[5] O=C(CSc1ccccc1)NC1CC1
[6] CCCN(CCC)C(=O)C[n+]1cccc(/C=N/O)c1
[7] CCNC(=O)C[C@H]1CC[C@H]2[C@@H](COc3ccc(NC(=O)c4ccccc4)cc3C(=O)N2C)O1
[8] COc1ccc(CN(C)C[C@H]2OCCCC[C@@H](C)Oc3ccc(NC(=O)Nc4cccc5ccccc45)cc3C(=O)N([C@H](C)CO)C[C@H]2C)cc1
[9] COC(=O)c1ccccc1SC1CC(=O)N(c2ccccc2)C1=O (centres undefined)
[10] Nc1cc(Cl)cc2c1-c1ccc(Cl)cc1C2

screen / no.,1,2,3,4,5,6,7,8,9,10
Vif A3G,·,-6.9%,1.6%,·,-1.8%,6.5%,·,·,23.3%,7.3%
HNF4A DNA FP,3.0,-0.3,-6.2,·,-1.1,-3.1,·,·,-0.8,2.1
Ecoli growth,0.61,0.676,0.686,·,·,·,·,·,0.62,0.678
FGF22 binding,i,i,·,·,i,·,i,i,i,i
MLL AF4-AF9 inh,?,-14.6,·,-1.8,0.4,·,-4.0,-7.8,0.6,0.0
ALR H2O2 inh,·,-3.5,-0.1,·,·,-2.5,·,·,18.5,·
Ecoli rRNA inh,7.6,4.5,·,-59.3,·,·,3.3,-2.6,6.0,·
Ecoli rRNA inh OD600,2.0,6.9,·,-81.0,·,·,5.3,-7.4,8.5,·
Ecoli rRNA inh RFP,-0.7,-1.3,·,-16.1,·,·,0.7,9.5,0.8,·

[11] CC/C(=N\NC(=O)c1ccc(-c2ccccc2)cc1)C12CC3CC(CC(C3)C1)C2
[12] CC(C)NC(=O)Nc1ccc2c(c1)C(=O)N([C@H](C)CO)C[C@H](C)[C@H](CN(C)C)OCCCC[C@H](C)O2
[13] C/C=C/c1ccc([C@H]2[C@@H](CO)N(C(=O)CC3CC3)C23CN(S(C)(=O)=O)C3)cc1
[14] COCCN=c1scc(-c2cc(OC)c(OC)c(OC)c2)n1/N=C/c1c(C)[nH]c2ccccc12
[15] CCOC(=O)c1ccc(NS(=O)(=O)c2ccc3c(c2)oc(=O)n3C)cc1
[16] O=c1oc(Nc2cccc(F)c2)nc2ccccc12
[17] CCCn1c(N)c(C(=O)CSc2nncs2)c(=O)[nH]c1=O
[18] COc1ccc(OC)c(NC(=O)C2CCN(Cc3cnn(-c4ccccc4)c3-n3cccc3)CC2)c1
[19] CC1CCc2sc(C(=O)NNC(=S)NC3CC3)cc2C1 (centres undefined)
[20] CCOC(=O)C1(CCOc2ccccc2)CCN(Cc2cccc3nonc23)CC1

screen / no.,11,12,13,14,15,16,17,18,19,20
Vif A3G,3.9%,·,·,-1.1%,69.3%,24.2%,3.3%,-2.4%,-0.8%,-0.8%
HNF4A DNA FP,-0.6,·,·,30.8,-0.8,0.5,-3.7,-2.5,-1.6,-4.3
Ecoli growth,·,·,·,·,0.737,0.666,0.692,0.656,0.684,0.695
FGF22 binding,·,i,i,i,i,·,i,·,i,i
MLL AF4-AF9 inh,·,-3.1,1.5,15.5,5.1,·,0.2,·,-0.9,25.8*
ALR H2O2 inh,98.4*,·,·,63.2,-7.0,-1.9,-2.6,·,10.9,-11.1
Ecoli rRNA inh,·,2.5,0.9,·,3.8,·,7.4,·,0.5,-27.0
Ecoli rRNA inh OD600,·,3.9,4.8,·,-1.9,·,14.8,·,-5.9,-33.2
Ecoli rRNA inh RFP,·,-1.4,1.1,·,0.8,·,-2.8,·,-0.4,-1.3

Grouped by structure: those above with a Cl atom.
[2] COc1ccc(Cl)cc1NS(=O)(=O)c1cccc(C(=O)NCC(C)(C)N2CCOCC2)c1
[3] CCn1nccc1C(=O)Nc1cc(Cl)ccc1Cl
[4] C=CCN=C1NC(c2cccc(Cl)c2)C(C(=O)OC)=C(C)N1Cc1cccc(C(F)(F)F)c1 (centres undefined)
[10] Nc1cc(Cl)cc2c1-c1ccc(Cl)cc1C2

screen / no.,2,3,4,10
Vif A3G,-6.9%,1.6%,·,7.3%
HNF4A DNA FP,-0.3,-6.2,·,2.1
Ecoli growth,0.676,0.686,·,0.678
FGF22 binding,i,·,·,i
MLL AF4-AF9 inh,-14.6,·,-1.8,0.0
ALR H2O2 inh,-3.5,-0.1,·,·
Ecoli rRNA inh,4.5,·,-59.3,·
Ecoli rRNA inh OD600,6.9,·,-81.0,·
Ecoli rRNA inh RFP,-1.3,·,-16.1,·

Some of these compounds in order of length of the SMILES, ascending:
[6] CCCN(CCC)C(=O)C[n+]1cccc(/C=N/O)c1
[9] COC(=O)c1ccccc1SC1CC(=O)N(c2ccccc2)C1=O (centres undefined)
[18] COc1ccc(OC)c(NC(=O)C2CCN(Cc3cnn(-c4ccccc4)c3-n3cccc3)CC2)c1

screen / no.,6,9,18
Vif A3G,6.5%,23.3%,-2.4%
HNF4A DNA FP,-3.1,-0.8,-2.5
Ecoli growth,·,0.62,0.656
FGF22 binding,·,i,·
MLL AF4-AF9 inh,·,0.6,·
ALR H2O2 inh,-2.5,18.5,·
Ecoli rRNA inh,·,6.0,·
Ecoli rRNA inh OD600,·,8.5,·
Ecoli rRNA inh RFP,·,0.8,·

Other records:
[21] COC(=O)[C@]12C[C@H](CC(=O)N3CCCC3)C(=O)N(Cc3ccccc3)C1=C[C@H](C(C)C)O[C@@H]2C1CC1
[22] Cc1noc(C)c1NC(=O)N(C)C[C@H]1Oc2ccc(NC(=O)Nc3cccc4ccccc34)cc2CC(=O)N([C@@H](C)CO)C[C@H]1C
[23] O=C(Cc1ccncc1)NCC[C@@H]1CC[C@@H](NC(=O)C2CC2)[C@@H](CO)O1
[24] COc1ccc(C(=O)CSc2nnc(Cn3cnc4ccccc43)o2)cc1
[25] O=C(CN1C(=O)CC(c2ccccc2)=Nc2ccccc21)NCc1ccco1
[26] CNC[C@@H]1OCCCC[C@H](C)Oc2ccc(NC(=O)Nc3ccc4c(c3)OCO4)cc2C(=O)N([C@H](C)CO)C[C@@H]1C
[27] CCN(Cc1ccc2c(c1)OCO2)C(=O)CSc1ncnc2sccc12
[28] N=C(N)SCc1nc2ccccc2c(=O)n1-c1ccccc1Cl
[29] CCOC(=O)C1=CN(CC2CCCCC2)CCC1=O
[30] S=C(NCc1ccco1)NCC1CCCO1 (centres undefined)

screen / no.,21,22,23,24,25,26,27,28,29,30
Vif A3G,·,·,·,2.4%,1.7%,·,-2.3%,0.6%,-1.0%,3.3%
HNF4A DNA FP,·,·,·,2.4,10.8,·,6.5,1.0,-4.7,-2.8
Ecoli growth,·,·,·,0.705,0.746,·,0.703,0.689,0.684,0.652
FGF22 binding,i,i,i,·,·,i,i,·,i,i
MLL AF4-AF9 inh,0.9,-0.8,-1.0,·,·,2.0,-6.3,·,-3.7,0.3
ALR H2O2 inh,·,·,·,-40.8,-2.1,·,1.7,0.1,·,-6.3
Ecoli rRNA inh,1.5,-0.8,3.9,·,·,3.2,-6.2,·,·,22.5
Ecoli rRNA inh OD600,-3.9,-6.8,12.6,·,·,6.1,-26.9,·,·,22.4
Ecoli rRNA inh RFP,1.1,1.2,0.2,·,·,-1.3,2.3,·,·,5.7

3 entries from above, arranged by the value under ALR H2O2 inh, ascending:
# | canonical_smiles | ALR H2O2 inh
25 | O=C(CN1C(=O)CC(c2ccccc2)=Nc2ccccc21)NCc1ccco1 | -2.1
28 | N=C(N)SCc1nc2ccccc2c(=O)n1-c1ccccc1Cl | 0.1
27 | CCN(Cc1ccc2c(c1)OCO2)C(=O)CSc1ncnc2sccc12 | 1.7

Additional structures.
[31] Cc1nc2ncnn2c(C)c1Cc1c(Cl)cccc1Cl
[32] O=C(C[C@H]1CC[C@H]2[C@@H](COC[C@@H](O)CN2Cc2ccccc2F)O1)N[C@@H]1CCN(Cc2ccccc2)C1
[33] O=[N+]([O-])c1cc(S(=O)(=O)N2CCCC2)ccc1NCCc1ccccc1
[34] Cc1cc(=O)oc2cc(OC(C)C(=O)N3CCOCC3)c(Cl)cc12 (centres undefined)
[35] COC(=O)[C@H](NC(=O)c1cc([C@@H](NC(=O)OC(C)(C)C)C(C)C)sc1N)C(C)C
[36] Cc1ccc(-c2ccc(OCC(=O)N3CCOCC3)cc2)cc1
[37] C[C@@H]1CN([C@H](C)CO)C(=O)c2cccc(NC(=O)c3ccncc3)c2O[C@H]1CN(C)C
[38] CN1C(C(=O)NCc2ccc(OC(F)(F)F)cc2)CC2Cn3c(nc4ccccc43)C21 (centres undefined)
[39] COc1ccccc1CN1CC[C@@H]2[C@H]1c1cc(-c3ccc(C(=O)N(C)C)cc3)ccc1N[C@@H]2CO
[40] CSCCC(=O)N1CCC(n2nccc2NC(=O)CCc2ccccc2)CC1

screen / no.,31,32,33,34,35,36,37,38,39,40
Vif A3G,-1.5%,·,-5.2%,-2.1%,·,12.7%,·,0.6%,·,·
HNF4A DNA FP,1.8,·,1.7,1.6,5.9,3.3,·,1.7,·,-0.7
Ecoli growth,0.682,·,0.686,·,·,0.688,·,0.697,·,0.645
FGF22 binding,·,i,·,i,i,·,i,i,i,i
MLL AF4-AF9 inh,·,5.3,·,-0.3,-6.1,·,-2.1,0.8,1.0,-6.4
ALR H2O2 inh,-6.4,·,-3.5,·,·,1.8,·,·,·,-9.1
Ecoli rRNA inh,·,-5.0,·,2.1,10.0,·,-3.3,-1.6,-2.2,6.6
Ecoli rRNA inh OD600,·,-9.4,·,3.7,7.9,·,1.8,-2.5,-4.3,0.7
Ecoli rRNA inh RFP,·,-1.4,·,1.0,8.3,·,-1.6,-9.2,-1.0,2.0

[41] O=S(=O)(c1ccc(Cl)cc1)N1CCC(N2CCOCC2)CC1
[42] COc1ccc(CNC(=O)CCCn2nc(C)c3c(C)n(-c4ccc(C)cc4)nc3c2=O)cc1OC
[43] CC1Cc2nc(SCC(=O)NC3CCCCC3)n(C)c(=O)c2S1 (centres undefined)
[44] COc1ccc(Cl)cc1NC(=S)N1CCN(C(=O)C2CCCO2)CC1 (centres undefined)
[45] Cc1ccc(-c2cnc3c(c2)C(=O)N([C@H](C)CO)C[C@@H](C)[C@H](CN(C)CC2CCCCC2)O3)cc1
[46] O=C(COC(=O)C1=COCCO1)Nc1ccc([N+](=O)[O-])cc1C(F)(F)F
[47] Cc1ccc(-c2noc(CCCC(=O)N3CCOCC3)n2)cc1
[48] CCOc1c(OC(C)=O)ccc(/C=C2\N=C(SCC)SC2=O)c1[N+](=O)[O-]
[49] COc1ccccc1NC(=S)N1CCc2cc(OC)c(OC)cc2C1
[50] COc1ccc(/C=C/C(=O)c2cc(Br)ccc(=O)c2O)cc1

screen / no.,41,42,43,44,45,46,47,48,49,50
Vif A3G,?,·,29.7%,10.2%,·,-3.3%,15.2%,9.5%,·,?
HNF4A DNA FP,-2.2,-0.6,3.0,3.6,·,0.8,-5.9,2.4,2.5,0.0
Ecoli growth,0.716,0.692,0.637,0.67,·,0.669,0.699,0.75,0.713,0.697
FGF22 binding,·,i,·,i,i,i,·,·,·,·
MLL AF4-AF9 inh,·,-6.2,·,-3.1,3.3,0.1,·,·,·,·
ALR H2O2 inh,-42.1,-0.5,-14.4,-13.8,·,-9.7,-2.3,68.1,74.8,24.9
Ecoli rRNA inh,·,18.4,·,5.1,3.7,8.6,·,·,·,·
Ecoli rRNA inh OD600,·,9.3,·,8.7,3.7,14.0,·,·,·,·
Ecoli rRNA inh RFP,·,2.9,·,-2.4,-0.8,0.8,·,·,·,·
